Screens from PubChem BioAssay.
Hedgehog inh = Hedgehog pathway signaling inhibitors, primary screen, luminescence, Shh-LIGHT2 cells, Gli-luciferase. AID 2313, 2010. Shh-LIGHT2 Gli-luciferase reporter, 30 h. hit rate 2.1% among 22,000. inhibition, % (no concentration beside the values);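 active = replicate mean of 65% or more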;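 note: pathway switched on by Shh-conditioned medium diluted 1 in 25 in low serum; 100 nL library stock added to about 40 µL; 0% = median of neutral wells and 100% = positive control level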
PD-1 reverse act = activators reversing PD-1 mediated T-cell inhibition, primary screen, luminescence, primary human CD4 T cells, PD-L1 beads | 29,000 tested, under 10 active | CellTiter-Glo 96 h | activation, % (concentration not given with the values);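 active = replicate mean of 50% or more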;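 note: 0% = median vehicle wells and 100% = positive control; 100 nL library stock added to about 50 µL; numbers are from one replicate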
MITF inhib = inhibitors of MITF, primary screen, MITF inhibitor project, cell-based, luminescence. hit rate 0.28% among 37,000. inhibition, % (test concentration not listed). AID 2240, 2010. TRPM1 promoter luciferase, 24 h;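 active = most replicates at 85% or more, or half of them and the mean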;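 note: human melanocyte line stably carrying TRPM1 promoter luciferase reporter; 0% = vehicle wells and 100% = a positive control; the first replicate is given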
YB-1 expression = inhibitors of YB-1 gene expression, primary screen, cell-based, fluorescence. U2OS, qRT-PCR YB-1 vs CDIP delta delta Cp, 16 h; hits give high values; zero = DMSO, each unit about twofold. delta delta Cp (YB-1 minus CDIP) (test concentration not listed). hit rate 0.37% among 30,000;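 active = delta delta Cp rounded down to an integer at or above 3, about 3 SD of DMSO wells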;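 note: higher means less YB-1 transcript or more CDIP transcript relative to DMSO; stock transfer was 100 nL into about 100 µL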
* marks the source's active call; other numbers are inactive results; / = not tested or not shown. Not all compounds are listed; rates above refer to the full screens.

SMILES	Hedgehog inh	PD-1 reverse act	MITF inhib	YB-1 expression
CNC[C@@H]1Oc2c(NC(=O)NC3CCCCC3)cccc2C(=O)N([C@H](C)CO)C[C@@H]1C	-51.6	2.6	-5.8	1.46
COc1ccc(C(=O)NCCc2c[nH]c3ccccc23)cc1[N+](=O)[O-]	/	0.9	-6.4	/
CC(=O)Nc1ccc(S(=O)(=O)N2CCc3ccccc32)cc1	-15.2	-8.0	20.4	0.12
Cc1noc(C)c1NC(=O)Nc1cccc2c1O[C@H](CN(C)C(=O)Nc1ccc(C(F)(F)F)cc1)[C@H](C)CN([C@H](C)CO)C2=O	-10.5	-2.2	-1.4	-0.224
Cc1cc2c(=O)n(Cc3ccco3)c(SCC(=O)N3CCCc4ccccc43)nc2s1	/	-4.0	66.8	/
C[C@H]1CN([C@@H](C)CO)C(=O)Cc2cc(NC(=O)Nc3ccc4c(c3)OCO4)ccc2O[C@@H]1CN(C)Cc1ccc2c(c1)OCO2	-17.9	1.2	10.8	-0.305
Cc1ccc(S(=O)(=O)Nc2ccc3c(c2)C(=O)N([C@H](C)CO)C[C@@H](C)[C@@H](CN(C)C(=O)Nc2ccc4c(c2)OCO4)O3)cc1	-2.2	0.0	-8.1	-0.357
Cc1cc(C(=O)Nc2cccc3c2O[C@H](CN(C)CC2CCCCC2)[C@H](C)CN([C@H](C)CO)C3=O)n(C)n1	-14.6	1.0	-3.3	-0.188
O=C(O)c1cc(=O)[nH]c2c(C(F)(F)F)cccc12	-0.7	0.2	18.3	-0.0385
Cc1noc(C)c1S(=O)(=O)Nc1ccc2c(c1)CC(=O)N([C@H](C)CO)C[C@H](C)[C@H](CN(C)Cc1ccc3c(c1)OCO3)O2	12.1	/	-1.0	-0.0768
C[C@@H]1CN([C@H](C)CO)C(=O)c2cc(NC(=O)Nc3ccccc3)ccc2O[C@H]1CN(C)Cc1ccccc1	/	0.8	3.9	-0.0689
C[C@@H]1CN([C@H](C)CO)C(=O)Cc2cc(NC(=O)c3ccncc3)ccc2O[C@@H]1CN(C)C(=O)Nc1ccc(F)cc1	-27.4	1.1	-6.4	-0.174
C[C@@H]1CCCCO[C@@H](CN(C)CC2CCCCC2)[C@@H](C)CN([C@H](C)CO)C(=O)c2cc(NC(=O)CCC(F)(F)F)ccc2O1	-5.0	1.6	8.7	-0.00607
CC(=O)O[C@@H]1[C@@H](O)[C@@H](O)[C@H](Oc2c(-c3ccc(O)cc3)oc3cc(O[C@@H]4O[C@@H](C)[C@H](O)[C@@H](O)[C@H]4O)cc(O)c3c2=O)O[C@H]1C	-7.7	/	/	2
C[C@@H]1CN([C@H](C)CO)C(=O)Cc2cc(NC(=O)C3CC3)ccc2O[C@@H]1CN(C)C	10.1	2.3	-14.1	0.22
CCCc1cc(=O)[nH]c(=S)[nH]1	-49.3	/	3.4	-0.197
COc1ccc(S(=O)(=O)N(C)C[C@@H]2Oc3ccc(NS(=O)(=O)c4ccc(Cl)cc4)cc3CC(=O)N([C@H](C)CO)C[C@H]2C)cc1	/	/	11.2	0.211
COC(=O)c1c(C)oc2ccc(N(C(=O)Oc3ccccc3)S(=O)(=O)c3ccc(C)cc3)cc12	/	0.6	-6.1	0.241
C[C@@H]1CN([C@H](C)CO)C(=O)c2cccc(NS(=O)(=O)c3cccs3)c2O[C@H]1CN(C)Cc1ccncc1	20.0	1.1	3.5	0.255
C[C@H](CO)N1C[C@H](C)[C@@H](CN(C)C)Oc2ccc(NC(=O)Nc3ccc(C(F)(F)F)cc3)cc2C1=O	21.3	0.2	-0.7	-0.433
CC1Nc2ccc(Cl)cc2S(=O)(=O)N1 (configuration not stated)	-39.3	3.3	-1.5	0.183
C[C@@H]1CN([C@H](C)CO)C(=O)c2cc(NS(=O)(=O)c3cccs3)ccc2O[C@@H]1CN(C)S(=O)(=O)c1ccc(Cl)cc1	/	1.3	-4.3	0.059
Cc1noc(C)c1NC(=O)N(C)C[C@H]1Oc2c(NC(=O)NC3CCCCC3)cccc2C(=O)N([C@H](C)CO)C[C@H]1C	16.1	/	-3.8	-0.0377
Cc1noc(C)c1NC(=O)Nc1cccc2c1O[C@H](CN(C)C(=O)NC1CCCCC1)[C@@H](C)CN([C@@H](C)CO)C2=O	-9.9	2.5	-3.9	0.117
CCn1c(SCC(=O)Nc2ccccc2)nc2ccc(I)cc2c1=O	/	-0.6	4.7	/
CNC[C@@H]1Oc2c(NC(=O)c3ccncc3)cccc2C(=O)N([C@@H](C)CO)C[C@@H]1C	14.0	/	-2.9	0.0898
COc1ccc(NC(=O)Nc2ccc3c(c2)CC(=O)N([C@@H](C)CO)C[C@H](C)[C@H](CN(C)Cc2ccc(C(=O)O)cc2)O3)cc1	26.4	-0.2	-7.2	0.24
CC(C)NC(=O)N(C)C[C@H]1Oc2ccc(NC(=O)Cc3ccccc3)cc2CC(=O)N([C@H](C)CO)C[C@H]1C	-11.5	3.0	5.9	-0.233
Cc1noc(C)c1NC(=O)Nc1ccc2c(c1)CC(=O)N([C@@H](C)CO)C[C@H](C)[C@H](CN(C)Cc1ccccc1)O2	-16.5	/	-16.4	0.429
NS(=O)(=O)c1ccc(NC(=O)CSc2nnc(-c3ccccc3Cl)n2-c2ccccc2)cc1	/	0.0	1.5	/
C[C@@H]1CN([C@H](C)CO)C(=O)c2cc(NC(=O)Cc3ccccc3)ccc2O[C@@H]1CN(C)Cc1ccc(Cl)c(Cl)c1	17.2	-0.7	21.2	0.35
CC(=O)NCc1c(F)cccc1Cl	23.3	1.6	-3.4	0.458
CC(C)NC[C@@H](O)COc1ccc(CC(N)=O)cc1	-52.6	1.4	-0.5	0.35
C[C@@H]1CN([C@@H](C)CO)C(=O)c2cccc(NC(=O)c3cnccn3)c2O[C@@H]1CN(C)C(=O)Nc1cccc2ccccc12	0.4	-3.1	-20.4	-0.722
COc1ccc(S(=O)(=O)Nc2cccc3c2O[C@H](CN(C)Cc2ccccc2)[C@H](C)CN([C@H](C)CO)C3=O)cc1	-22.7	0.8	-16.7	-0.262
C[C@H]1CN([C@@H](C)CO)C(=O)Cc2cc(NC(=O)CCN3CCOCC3)ccc2O[C@H]1CN(C)Cc1ccccc1	-19.7	/	-6.6	0.539
C[C@H]1CN([C@@H](C)CO)C(=O)c2cccc(NC(=O)c3ccc(-c4nccs4)cc3)c2O[C@H]1CN(C)C(=O)Nc1ccc(C(F)(F)F)cc1	19.7	-5.3	12.6	-0.0978
C[C@@H]1CN([C@H](C)CO)C(=O)c2cc(NS(=O)(=O)c3ccc(F)cc3)ccc2O[C@@H]1CN(C)C(=O)Nc1ccc(C(F)(F)F)cc1	/	-3.1	9.4	-0.276
CC(C)(O[C@@H]1O[C@H](CO)[C@@H](O)[C@H](O)[C@H]1O)[C@@H](O)COc1c2ccoc2cc2oc(=O)ccc12	-29.7	-2.3	-0.8	0.727
COc1ccc(NC(=O)N(C)C[C@@H]2Oc3c(NS(=O)(=O)c4ccccc4)cccc3C(=O)N([C@@H](C)CO)C[C@H]2C)cc1	11.4	4.4	-1.7	0.309

Gathered by group, the compounds so far with two or more sulfur atoms (5)
SMILES	Hedgehog inh	PD-1 reverse act	MITF inhib	YB-1 expression
Cc1cc2c(=O)n(Cc3ccco3)c(SCC(=O)N3CCCc4ccccc43)nc2s1	/	-4.0	66.8	/
COc1ccc(S(=O)(=O)N(C)C[C@@H]2Oc3ccc(NS(=O)(=O)c4ccc(Cl)cc4)cc3CC(=O)N([C@H](C)CO)C[C@H]2C)cc1	/	/	11.2	0.211
C[C@@H]1CN([C@H](C)CO)C(=O)c2cccc(NS(=O)(=O)c3cccs3)c2O[C@H]1CN(C)Cc1ccncc1	20.0	1.1	3.5	0.255
C[C@@H]1CN([C@H](C)CO)C(=O)c2cc(NS(=O)(=O)c3cccs3)ccc2O[C@@H]1CN(C)S(=O)(=O)c1ccc(Cl)cc1	/	1.3	-4.3	0.059
NS(=O)(=O)c1ccc(NC(=O)CSc2nnc(-c3ccccc3Cl)n2-c2ccccc2)cc1	/	0.0	1.5	/

Remaining list, next part:
SMILES	Hedgehog inh	PD-1 reverse act	MITF inhib	YB-1 expression
C[C@H]1CN([C@@H](C)CO)C(=O)Cc2cc(NC(=O)C3CC3)ccc2O[C@H]1CN(C)CC1CC1	/	1.2	2.5	0.463
CC(=O)O[C@@H]1CC[C@@]2(C)C(C[C@@H](OC(C)=O)[C@@]3(C)C4=CC(=O)O[C@@H](c5ccoc5)[C@]4(C)CCC23)C1(C)C (some centres not stated)	10.6	/	14.9	0.343
CN1CCN(CCn2c(-c3ccc(Br)cc3)cn3c4ccccc4nc23)CC1	/	-2.8	1.0	/
Cc1noc(C)c1NC(=O)N(C)C[C@@H]1Oc2ccc(NS(=O)(=O)c3ccccc3)cc2C(=O)N([C@H](C)CO)C[C@@H]1C	-30.9	0.2	-6.1	0.1
Cc1noc(C)c1S(=O)(=O)Nc1ccc2c(c1)C(=O)N([C@H](C)CO)C[C@@H](C)[C@H](CN(C)Cc1ccc(Oc3ccccc3)cc1)O2	28.1	-0.1	4.1	-0.224
O=C(O)c1ccc2cc[nH]c2c1	/	-0.2	-0.1	-0.796
C[C@@H]1CN([C@H](C)CO)C(=O)Cc2cc(NC(=O)Nc3ccccc3)ccc2O[C@@H]1CN(C)Cc1ccc(C(=O)Nc2ccccc2N)cc1	/	-0.4	-19.0	0.272
COc1ccc(NC(=O)N(C)C[C@@H]2Oc3ccc(NC(=O)Cn4cnnn4)cc3CC(=O)N([C@@H](C)CO)C[C@@H]2C)cc1	11.3	/	-12.0	-0.116
C[C@@H]1O[C@@H](O[C@H]2[C@@H](Oc3cc(O)c4c(c3)O[C@H](c3ccc(O)cc3)CC4=O)O[C@H](CO)[C@@H](O)[C@@H]2O)[C@H](O)[C@H](O)[C@H]1O	-8.6	/	-13.4	-0.285
Cc1ccc(S(=O)(=O)N(C)C[C@@H]2Oc3c(NC(=O)c4nc5ccccc5s4)cccc3C(=O)N([C@H](C)CO)C[C@H]2C)cc1	-17.3	-0.9	11.9	-0.216
C[C@H](CO)N1C[C@H](C)[C@@H](CN(C)S(=O)(=O)c2ccc(F)cc2)Oc2ccc(NC(=O)CCN3CCOCC3)cc2C1=O	-1.1	/	-8.1	-0.0638
Cc1ccc(S(=O)(=O)Nc2ccc3c(c2)CC(=O)N([C@@H](C)CO)C[C@@H](C)[C@@H](CN(C)C(=O)NC2CCCCC2)O3)cc1	-10.3	-0.2	-27.5	-0.26
Cc1noc(C)c1S(=O)(=O)Nc1ccc2c(c1)C(=O)N([C@@H](C)CO)C[C@H](C)[C@@H](CN(C)Cc1ccccc1)O2	7.1	-0.8	3.8	-0.317
C[C@H](CO)N1C[C@H](C)[C@@H](CN(C)Cc2ccccc2)Oc2c(NC(=O)C3CCCCC3)cccc2C1=O	38.5	-3.0	17.8	-0.769
c1ccc(C(c2ccccc2)N2CCC2)cc1	-11.0	0.6	-9.8	0.122
C[C@H]1CN([C@@H](C)CO)C(=O)c2cccc(NS(=O)(=O)c3ccc(F)cc3)c2O[C@@H]1CN(C)S(=O)(=O)c1ccccc1	-5.5	0.9	0.5	-0.0936
C[C@H]1CN([C@@H](C)CO)C(=O)Cc2cc(NC(=O)CCC(F)(F)F)ccc2O[C@@H]1CN(C)S(=O)(=O)c1ccc(F)cc1	/	/	7.5	-0.916
COc1ccc(NC(=O)Nc2ccc3c(c2)C(=O)N([C@@H](C)CO)C[C@@H](C)[C@@H](CN(C)C(=O)Nc2cccc4ccccc24)O3)cc1	-22.1	0.8	3.4	-0.0733
C(=C\c1ccccc1)/CSc1nc2ccccc2[nH]1	12.2	-2.7	11.7	0.143
Cc1ccc(S(=O)(=O)N(C)C[C@H]2OCCCC[C@@H](C)Oc3ccc(NC(=O)Nc4cccc5ccccc45)cc3C(=O)N([C@H](C)CO)C[C@@H]2C)cc1	0.4	/	4.7	-0.0955
O=C1Cc2c([nH]c3ccc(Br)cc23)-c2ccccc2N1	-1.2	4.7	-34.1	-0.454
Cn1c(SCc2ccc([N+](=O)[O-])cc2)nnc1-c1ccccn1	/	0.4	-0.7	/
O=c1n(-c2ccccc2)c(=O)n(Cc2ccccn2)n1Cc1ccccn1	/	-0.6	-17.7	/
C[C@H](CO)N1C[C@H](C)[C@H](CN(C)Cc2ccncc2)Oc2ccc(NC(=O)Nc3ccccc3)cc2CC1=O	25.8	0.4	-28.3	0.396
COc1ccc(NC(=O)N(C)C[C@H]2Oc3c(NC(=O)Nc4ccc(F)cc4)cccc3C(=O)N([C@H](C)CO)C[C@H]2C)cc1	8.3	/	5.5	-0.0762
Cc1cc(C(=O)Nc2cccc3c2O[C@H](CN(C)C(=O)NC2CCCCC2)[C@@H](C)CN([C@@H](C)CO)C3=O)n(C)n1	-22.4	2.1	5.0	-0.123
Cc1ccc(S(=O)(=O)Nc2cccc3c2O[C@H](CN(C)S(C)(=O)=O)[C@H](C)CN([C@H](C)CO)C3=O)cc1	-30.5	3.8	2.0	-0.0329
Cc1ccc(S(=O)(=O)N(C)C[C@H]2OCCCC[C@@H](C)Oc3ccc(NC(=O)Nc4ccccc4)cc3C(=O)N([C@H](C)CO)C[C@@H]2C)cc1	/	0.8	2.9	-0.133
COc1cc(C2C(C#N)=C(C)Nc3oc(C)nc32)ccc1OCCN1CCOCC1 (configuration not stated)	-4.4	-3.9	-3.1	-0.627
